Vaccinia inh: Vaccinia orthopox stage-specific inhibition. Vaccinia-infected cells, mCherry/Venus stage reporter fluorescence; stronger effect = lower value; some inactives read as strong as hits. activity change (mCherry), % (test concentration not listed). actives 0.01% (n = 89,000). AID 1053133;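 active = mCherry past -33% and 40 or more points under the early reporter, replicates agreeing; inconclusive = past -33% without that gap or agreement; tested in A549 cells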;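 also: scaled between vehicle wells and reference inhibitor wells; 23 nL library stock went into each well; one replicate is shown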
Vaccinia inh Venus: further read-out of Vaccinia inh, marked with its call; activity change (Venus), %; measured here: Venus reporter, other viral stage;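 negative = less Venus signal; first of two replicates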
Numbers without * were called inactive; ? = inconclusive; / = not tested or not shown.

SMILES	Vaccinia inh	Vaccinia inh Venus
CO[C@@H]1CN(C)C(=O)c2cc(NC(=O)NC(C)C)ccc2OC[C@@H](C)N(C(=O)NC(C)C)C[C@@H]1C	8.6	-1.7
C[C@@H]1CN([C@H](C)CO)C(=O)c2cccc(NC(=O)Nc3ccc4c(c3)OCO4)c2O[C@@H]1CN(C)C(=O)Nc1ccc(C(F)(F)F)cc1	-25.1	-19.5
CCCNC(=O)[C@@H]1[C@@H](CO)[C@@H]2Cn3c(ccc(C4=CCCC4)c3=O)[C@H]1N2C(=O)C1CC1	7.2	13.6
O=C(C[C@@H]1CC[C@H]2NC[C@H](O)COC[C@@H]2O1)Nc1ccc(-c2ccccc2)cc1	-32.4	-14.6
CN1C(=O)c2cc(NC(=O)C3CC3)ccc2OC[C@@H]2O[C@@H](CC(=O)NCCN3CCCC3)CC[C@@H]21	-2.2	2.6
C[C@@H]1CN([C@@H](C)CO)C(=O)c2cc(NC(=O)CCC(F)(F)F)ccc2O[C@@H](C)CCCCO[C@@H]1CN(C)C(=O)C1CCCCC1	-7.3	-0.4
Cc1noc(C)c1S(=O)(=O)Nc1ccc2c(c1)C(=O)N([C@@H](C)CO)C[C@@H](C)[C@H](CN(C)S(=O)(=O)c1cccs1)O2	?	/
C[C@H](CO)N1C[C@H](C)[C@@H](CN(C)C(=O)C2CC2)Oc2cc(-c3ccncc3)ccc2S1(=O)=O	3.8	0.4
C[C@@H]1CN([C@H](C)CO)C(=O)c2cccc(NS(=O)(=O)c3cn(C)cn3)c2O[C@@H]1CN(C)S(=O)(=O)c1cccs1	7.7	1.9
CO[C@@H]1CN(C)C(=O)c2ccc(NC(=O)c3ccccc3)cc2OC[C@@H](C)N(C(=O)C2CC2)C[C@H]1C	4.7	-4.6
CCNC(=O)C[C@@H]1CC[C@H]2[C@@H](COC[C@H](O)CN2Cc2ccc(Cl)c(Cl)c2)O1	-10.3	-9.9
Cc1ccc(S(=O)(=O)N(C)C[C@@H]2Oc3ccc(NC(=O)NC4CCCCC4)cc3C(=O)N([C@H](C)CO)C[C@@H]2C)cc1	?	/
C[C@@H]1CCCCO[C@H](CN(C)Cc2ccc(C(=O)O)cc2)[C@H](C)CN([C@@H](C)CO)C(=O)c2cc(NC(=O)NC3CCCCC3)ccc2O1	19.1	9.7
CO[C@H]1O[C@H](CO)[C@@H](OC(=O)Nc2ccc3c(c2)OCO3)[C@H](OC(=O)Nc2ccccc2)[C@H]1OC(=O)Nc1ccccc1	-19.9	-16.3
CC(=O)N(C)C[C@@H]1Oc2cc(C#Cc3ccccn3)ccc2S(=O)(=O)N([C@@H](C)CO)C[C@@H]1C	14.2	16.4
C[C@H]1CN([C@@H](C)CO)S(=O)(=O)c2ccc(-c3ccccc3)cc2O[C@H]1CN(C)CC1CC1	-14.8	-28.2
O=C(C[C@@H]1CC[C@H]2[C@@H](COC[C@@H](O)CN2C(=O)c2ccc3c(c2)OCO3)O1)NCCN1CCCC1	13.3	-1.7
O=C(C1CCOCC1)N1CC(=O)N2[C@H](CO)[C@H](c3ccc(C#CC4CCCCC4)cc3)[C@@H]2C1	-20.9	-38.8
COc1ccc2c3c(n(C)c2c1)[C@H](CO)N(S(C)(=O)=O)CC31CN(CC2CCOCC2)C1	6.0	-5.3
C[C@@H]1CN([C@H](C)CO)C(=O)Cc2cc(NS(=O)(=O)c3cn(C)cn3)ccc2O[C@@H]1CN(C)Cc1ccncc1	2.3	1.4

3 compounds picked at random from those above:
SMILES	Vaccinia inh	Vaccinia inh Venus
CCCNC(=O)[C@@H]1[C@@H](CO)[C@@H]2Cn3c(ccc(C4=CCCC4)c3=O)[C@H]1N2C(=O)C1CC1	7.2	13.6
CO[C@@H]1CN(C)C(=O)c2ccc(NC(=O)c3ccccc3)cc2OC[C@@H](C)N(C(=O)C2CC2)C[C@H]1C	4.7	-4.6
C[C@@H]1CCCCO[C@H](CN(C)Cc2ccc(C(=O)O)cc2)[C@H](C)CN([C@@H](C)CO)C(=O)c2cc(NC(=O)NC3CCCCC3)ccc2O1	19.1	9.7

The listing continues:
SMILES	Vaccinia inh	Vaccinia inh Venus
CC=Cc1ccc2n(c1=O)C[C@@H]1[C@@H](CO)[C@H](C(=O)NCCc3ccncc3)[C@H]2N1Cc1ccncc1 (mixture of isomers)	7.5	8.5
CO[C@H](CN(C)C(=O)C1CCOCC1)[C@H](C)CN(C(=O)Nc1ccc(C(F)(F)F)cc1)[C@@H](C)CO	9.9	5.6
COc1ccc2c3c([nH]c2c1)[C@@H](CO)N(S(C)(=O)=O)CC31CCN(C(=O)Nc2ccccc2)CC1	-7.1	-9.0
CC(C)NC(=O)N[C@H]1CC[C@H](CC(=O)NCc2ccc(Oc3ccccc3)cc2)O[C@@H]1CO	-7.1	-4.4
O=C(Nc1ccc(F)cc1)N[C@H]1C=C[C@H](CC(=O)N2CCOCC2)O[C@@H]1CO	2.6	-5.0
O=C(C[C@@H]1C[C@@H]2c3cc(NC(=O)NC4CCCCC4)ccc3O[C@@H]2[C@H](CO)O1)NC1CCCCC1	16.9	2.9
O=S(=O)(NCC[C@@H]1CC[C@@H](NS(=O)(=O)c2cccc(Cl)c2)[C@@H](CO)O1)c1cccc(F)c1	-12.8	-1.7
C[C@H]1CN([C@@H](C)CO)C(=O)c2cc(C#CCN(C)C)cnc2O[C@H]1CN(C)C(=O)Cc1cccnc1	12.6	-4.2
O=C(NCC1CC1)[C@H]1[C@H](CO)[C@H]2Cn3c(cccc3=O)[C@H]2N1Cc1cccc(F)c1	2.9	3.5
CO[C@@H](CN(C)C(=O)c1ccccc1F)[C@@H](C)CN([C@H](C)CO)S(=O)(=O)c1ccc(Cl)cc1	6.1	0.2
C[C@H](CO)N1C[C@H](C)[C@@H](CN(C)Cc2ccc(C(=O)O)cc2)OCc2cnnn2CCCC1=O	5.9	6.1
COC(=O)C(CC#Cc1ccc2c(c1)[C@]1(C(=O)N2)[C@H](C(=O)N2CCN(c3ncccn3)CC2)[C@H]2C(=O)O[C@H](c3ccccc3)[C@H](c3ccccc3)N2[C@@H]1c1ccc(OCCO)cc1)C(=O)OC	-3.3	1.5
O=C(c1ccc(F)cc1)N1CCCCN2[C@@H](CO)[C@@H](c3ccc(-c4ccccc4)cc3)[C@@H]2C1	?	/
Cn1cnc(S(=O)(=O)N[C@@H]2C=C[C@@H](CC(=O)Nc3ccc(-c4ccccc4)cc3)O[C@@H]2CO)c1	9.8	17.8
CCCC#Cc1ccc([C@@H]2[C@@H](CO)N3CCCCN(CC4CC4)C[C@@H]23)cc1	?	/
N#C[C@@H]1[C@H](c2ccccc2)[C@@H](CO)N1C(=O)Nc1cccc(F)c1	0.7	-3.8
COc1ccccc1-c1ccc2c(c1)[C@H]1[C@H](CCN1S(=O)(=O)c1ccc(C)cc1)[C@@H](CO)N2	-5.8	-7.5
COCC#Cc1ccc([C@H]2[C@@H](CO)N3C(=O)CN(C(=O)CN4CCOCC4)C[C@@H]23)cc1	21.6	4.6
O=C(CN1CCOCC1)NCC[C@H]1CC[C@@H](NC(=O)Nc2ccc(C(F)(F)F)cc2)[C@H](CO)O1	-8.4	-1.1
O=C(NCC[C@@H]1CC[C@@H](NC(=O)Nc2cc(F)ccc2F)[C@H](CO)O1)Nc1ccc(Cl)cc1	3.0	8.8
COc1ccc(C#Cc2ccc([C@@H]3[C@H]4CN(C(C)=O)CC(=O)N4[C@H]3CO)cc2)cc1	-7.4	-6.6
C[C@H]1CN([C@@H](C)CO)C(=O)c2cccc(N(C)C)c2O[C@H]1CN(C)Cc1ccncc1	27.1	17.7
CC(C)C#Cc1cnc2c(c1)C(=O)N([C@H](C)CO)C[C@H](C)[C@@H](CN(C)C(=O)c1cnccn1)O2	28.3	6.0
Cc1noc(C)c1S(=O)(=O)Nc1ccc2c(c1)C(=O)N([C@H](C)CO)C[C@@H](C)[C@@H](CN(C)Cc1ccc(C(=O)Nc3ccccc3N)cc1)O2	12.0	8.6
CCC(=O)N[C@H]1CC[C@H](CC(=O)NCC2CC2)O[C@H]1CO	3.7	-3.1
C[C@@H]1CN([C@H](C)CO)C(=O)c2cc(/C=C/c3ccccc3)cnc2O[C@@H]1CN(C)C(=O)Cc1ccccn1	3.3	2.9
C[C@H](CO)N1C[C@H](C)[C@H](CN(C)S(=O)(=O)c2ccc(Cl)cc2)Oc2c(NC(=O)Nc3cccc4ccccc34)cccc2C1=O	1.7	-0.4
C[C@@H]1CN([C@@H](C)CO)C(=O)c2cccc(NC(=O)Nc3ccc4c(c3)OCO4)c2O[C@@H]1CN(C)S(=O)(=O)c1ccccc1	-5.5	-5.2
CCCc1cn(CC[C@@H]2CC[C@@H](NC(=O)CCN3CCCCC3)[C@@H](CO)O2)nn1	6.6	5.0
CN1CCN(C(=O)C[C@@H]2C=C[C@H](NC(=O)Cc3ccccn3)[C@@H](CO)O2)CC1	6.1	0.8
CN1[C@H](C(=O)NCC(F)(F)F)[C@@H](CO)[C@@H]2Cn3c(ccc(-c4ccc(F)cc4)c3=O)[C@@H]21	10.1	5.1
COc1ccc(S(=O)(=O)N(C)C[C@@H]2Oc3ccc(NC(=O)CCCN(C)C)cc3CC(=O)N([C@@H](C)CO)C[C@H]2C)cc1	8.7	-0.1
C[C@H](CO)N1C[C@H](C)[C@@H](CN(C)S(=O)(=O)c2cccc(C#N)c2)OCc2ccccc2-c2c(n(C)c3ccccc23)C1=O	12.0	-1.2
O=C(Cc1ccccn1)NCC[C@@H]1CC[C@@H](NS(=O)(=O)c2ccc(Cl)cc2)[C@@H](CO)O1	-9.2	-10.5
C[C@@H]1CN([C@@H](C)CO)C(=O)c2cccc(NS(C)(=O)=O)c2O[C@@H]1CN(C)C(=O)NC1CCCCC1	8.6	2.0
C[C@H](CO)N1C[C@H](C)[C@@H](CN(C)S(=O)(=O)c2ccc(F)cc2)Oc2ccc(NC(=O)c3ccncc3)cc2CC1=O	-1.3	0.6
O=C(C[C@H]1C[C@H]2c3cc(NC(=O)NC4CCCC4)ccc3O[C@H]2[C@@H](CO)O1)NCc1ccc2c(c1)OCO2	15.4	11.4
CNC[C@H]1Oc2ccc(NS(=O)(=O)c3ccc(OC)cc3)cc2C(=O)N([C@H](C)CO)C[C@H]1C	2.0	-0.7
O=C(C1CCCCC1)N1C[C@H]2[C@@H](c3ccccc31)[C@H](CO)N2CC1CCOCC1	13.1	1.2
COCC(=O)Nc1ccc2c(c1)OC[C@H](C)N(Cc1ccncc1)C[C@@H](C)[C@@H](OC)CN(C)C2=O	7.7	1.1
C/C=C/c1cnc2c(c1)C(=O)N([C@@H](C)CO)C[C@@H](C)[C@H](CN(C)C(=O)c1ccc3c(c1)OCO3)O2	4.9	0.7
CCCN(C)C[C@@H]1OCCCC[C@@H](C)Oc2ccc(NC(=O)NC(C)C)cc2C(=O)N([C@H](C)CO)C[C@@H]1C	19.4	6.7
C[C@@H]1CN([C@H](C)CO)C(=O)c2cccc(NC(=O)C3CCOCC3)c2O[C@H]1CN(C)Cc1ccc(Oc2ccccc2)cc1	?	/
CC(C)NC(=O)N(C)C[C@@H]1Oc2ncc(C#CCc3ccccc3)cc2C(=O)N([C@H](C)CO)C[C@H]1C	3.4	9.0
C/C=C/c1ccccc1[C@H]1[C@@H](CO)N(C(=O)NC2CCCCC2)[C@H]1C#N	-11.5	-11.2
C[C@@H]1CN([C@@H](C)CO)C(=O)c2cc(NC(=O)Cc3cn(C)c4ccccc34)ccc2O[C@@H]1CN(C)CC1CC1	-4.8	1.5
COc1ccc(NC(=O)N(C)C[C@H]2Oc3ccc(NS(=O)(=O)c4ccccc4)cc3C(=O)N([C@@H](C)CO)C[C@H]2C)cc1	25.4	15.3
O=C(N[C@@H]1CC[C@@H](CCn2cc(-c3ccccn3)nn2)O[C@@H]1CO)c1ccc(F)cc1	-6.3	1.2
C[C@@H]1CN([C@@H](C)CO)C(=O)Cc2cc(NC(=O)Cc3ccccc3)ccc2O[C@@H]1CN(C)Cc1ccccc1	-4.7	10.3
O=C(C[C@@H]1C=C[C@H](NC(=O)c2cccc(F)c2)[C@@H](CO)O1)Nc1nccs1	-6.0	1.9
C[C@@H]1CN([C@H](C)CO)C(=O)Cc2cc(NS(=O)(=O)c3ccc(F)cc3)ccc2O[C@@H]1CN(C)C(=O)NC1CCCCC1	-0.4	4.4
C[C@H](CO)N1C[C@H](C)[C@H](CN(C)C(=O)Nc2cccc3ccccc23)Oc2ccc(NS(=O)(=O)c3ccc(F)cc3)cc2CC1=O	15.3	4.7
COCC(=O)N(C[C@H]1N[C@H](CO)[C@H]1c1ccc(C2=CCCCC2)cc1)C(C)C	-23.4	-13.8
CO[C@H]1CN(C)C(=O)c2cc(NS(=O)(=O)c3ccc(-c4ccccc4)cc3)ccc2OC[C@@H](C)NC[C@H]1C	-24.9	-17.3
C[C@@H]1CN([C@@H](C)CO)C(=O)c2cccc(NC(=O)Nc3ccccc3)c2O[C@@H]1CN(C)S(C)(=O)=O	-12.2	-10.0
C[C@@H]1CN([C@@H](C)CO)C(=O)c2cc(NC(=O)Cn3cnnn3)ccc2O[C@H]1CN(C)C(=O)Nc1cccc2ccccc12	19.3	22.7
O=C(C[C@@H]1C[C@@H]2c3cc(NS(=O)(=O)c4ccc(F)cc4)ccc3O[C@@H]2[C@@H](CO)O1)NCc1ccc(Cl)cc1	-33.8	-23.6
CCCNC(=O)N(C)C[C@H]1Oc2ncc(/C=C/c3ccccc3)cc2C(=O)N([C@H](C)CO)C[C@H]1C	-5.4	-4.6
C[C@@H]1CN([C@@H](C)CO)C(=O)c2cc(-c3ccc(C#N)cc3)cnc2O[C@H]1CN(C)CC1CCOCC1	9.8	-0.4

A draw from above in order of heavy-atom count, descending.
SMILES	Vaccinia inh	Vaccinia inh Venus
C[C@@H]1CN([C@@H](C)CO)C(=O)c2cc(NC(=O)Cn3cnnn3)ccc2O[C@H]1CN(C)C(=O)Nc1cccc2ccccc12	19.3	22.7
C[C@@H]1CN([C@@H](C)CO)C(=O)Cc2cc(NC(=O)Cc3ccccc3)ccc2O[C@@H]1CN(C)Cc1ccccc1	-4.7	10.3
COCC(=O)N(C[C@H]1N[C@H](CO)[C@H]1c1ccc(C2=CCCCC2)cc1)C(C)C	-23.4	-13.8

These rows are one share of the data; count on the stated rates, not on these rows.
